Screening data as filed in PubChem.
VDR inhibitor = inhibitors of human vitamin D receptor. P11473. VDR-SRC2-3 peptide fluorescence polarization, 2 h. Potency, µM, without a hit: max response, negative = inhibition, actives largely listed as inhibitors. 0.93% of 400,000 active; active = well fitted inhibition curve with a large enough effect; inconclusive = small, poorly fitted or top-dose-only effect, or another doubt; inactive = no such curve, though single readings can be large or run the other way; also: series mostly up to about 120 µM
Target sequence (P11473 whole entry, looked up): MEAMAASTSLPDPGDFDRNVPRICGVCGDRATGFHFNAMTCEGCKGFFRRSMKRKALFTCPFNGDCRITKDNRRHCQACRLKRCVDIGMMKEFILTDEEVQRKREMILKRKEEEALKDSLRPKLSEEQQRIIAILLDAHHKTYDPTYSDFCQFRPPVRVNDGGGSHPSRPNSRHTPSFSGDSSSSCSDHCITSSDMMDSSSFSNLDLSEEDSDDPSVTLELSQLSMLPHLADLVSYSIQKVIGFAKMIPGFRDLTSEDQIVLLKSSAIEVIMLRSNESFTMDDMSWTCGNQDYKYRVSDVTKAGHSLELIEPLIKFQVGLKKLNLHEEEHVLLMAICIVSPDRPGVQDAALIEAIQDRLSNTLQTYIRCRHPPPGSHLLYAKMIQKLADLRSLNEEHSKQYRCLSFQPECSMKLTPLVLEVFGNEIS
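Compounds are added to VDR with labelled SRC2-3 coactivator peptide and held 2 h at room temperature. Inhibition of the VDR–peptide interaction is then read as a change in fluorescence polarization.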
An asterisk follows results filed as active; ? = inconclusive; & = joins results of further samples; [ ] = remark or other dose. % is scaled to controls: 0 for no effect and ±100 for the full control effect; potency is read from the fitted curve at half-maximal effect. Some of the compounds tested. The share of hits here may be higher or lower than overall.

VDR inhibitor | Molecule
19% | CC(C)CCOC(=O)/C(=C/c1ccco1)NC(=O)/C=C/c1ccccc1
-4% | O=C(CCCO)NNc1c2ccccc2nc2ccccc12
3% | CC(C)OC(=O)C1Cc2ccccc2CN1S(=O)(=O)c1cccs1 (centres undefined)
4% | O=C(NCC(c1ccc(Cl)cc1)N1CCCCC1)c1ccccc1 (centres undefined)
15% | CCOC(=O)c1ccc(NC(=O)N2CCN(CCc3ccccc3)CC2)cc1
16% | CCOC(=O)C1CCCN(CC(=O)/C=C2/N(C)c3ccccc3C2(C)C)C1 (centres undefined)
-13% | O=C(NCc1ccc(F)cc1)N1CCN(C(=O)c2ccccc2)CC1
0% | COc1ccccc1C(=O)COC(=O)/C=C/c1ccccc1
0% | COc1ccccc1OCC(=O)Nc1cc(Cl)ccc1Oc1ccccc1
6% | Cc1cccc(N2CC(C(=O)OCc3ccc([N+](=O)[O-])cc3)CC2=O)c1 (centres undefined)
-7% | O=C(c1ccc2c(c1)N(Cc1ccccc1)C(=O)c1ccccc1S2(=O)=O)N1CCN(c2ccccc2)CC1
-21% | Cc1ccc(C)c(OCC(=O)Nc2ccc(S(=O)(=O)Nc3ccccn3)cc2)c1
24% | CCCn1c(N)c(N(CCOC)C(=O)CSc2ccccc2)c(=O)[nH]c1=O
-17% | O=C(Nc1cccc([N+](=O)[O-])c1)c1cccc(C(=O)Nc2cccc([N+](=O)[O-])c2)c1
19% | O=C(CSc1ncccn1)Nc1ccc(Cl)c(S(=O)(=O)N2CCOCC2)c1

VDR inhibitor | Molecule
-11% | CC1(C)CC(=O)c2cc(C(=O)N3CCCC(C)(C)C3)c(=O)n(-c3ccccc3)c2C1
-9% | O=C(Cc1cccs1)Nc1ccc(NC(=O)c2ccco2)cc1
10% | O=C(Nc1nnc(C2CC2)s1)c1ccccn1
2% | CCOC(=O)c1cnc2c(C)c(Cl)ccc2c1NCCCN1CCOCC1
-26% | O=C1C(=O)c2ccccc2C(O)=C1CCCCl
71µM* | O=C(/C=C/c1ccco1)c1cccc([N+](=O)[O-])c1
12% | CCOc1ccc(CCNC(=O)CCc2c(C)nc3ncnn3c2C)cc1OCC
15% | COc1ccccc1-c1nnc(NC(=O)c2ccc(S(=O)(=O)N3CCCC3)cc2)o1
-17% | COc1ccc(NC(=O)CN2C(=O)c3cccc4cccc2c34)cc1OC
-10% | Cn1c(SCC(=O)NNC(=O)Cc2ccccc2)nnc1-c1ccc(Cl)cc1
0% | N/C(CC(=O)Nc1ccc(F)cc1)=N\O
4% | CCNCCOC(c1ccccc1)c1ccccc1
-11% | Fc1ccc(/C=N/NC(=S)NCCc2ccccc2)cc1F
0% | Nn1c(SCC(=O)NC2CCCc3ccccc32)nnc1C1CC1 (centres undefined)
-3% | CCC(c1nnc(SCC(=O)Nc2ccc(C(C)=O)cc2)n1C1CCCCC1)N(C)C (centres undefined)

VDR inhibitor | Molecule
19% | O=C(NCc1ccccc1F)c1cc2ccccn2n1
-6% | CCC1(c2ccccc2)NC(=O)N(CC(=O)NCC2COc3ccccc3O2)C1=O (centres undefined)
-1% | CC(=O)Nc1nc(-c2ccc3c(c2)CCN3S(C)(=O)=O)cs1
-6% | CCCCNc1c(-c2ccc(OC)c(SC3CCCCC3)c2)nc2ccc(Cl)cn12
-15% | O=C(Nc1nnc(SCC(=O)N2CCCC2)s1)C1CC(=O)N(c2ccc(F)cc2)C1 (centres undefined)
0% | O=C(NC1CCCCC1)n1c(=O)oc2ccc(Cl)cc21
-4% | CC(C)c1ccc(C2C(C#N)=C(N)Oc3c2oc(CO)cc3=O)cc1 (centres undefined)
11% | CCOc1ccccc1NC(=O)N1CCC(NC(=O)c2cccc(C)c2)CC1
-1% | O=C1c2ccccc2C(=O)N1c1cccc(O)c1
-22% | CC(C)=CC(=O)Oc1ccc(C(=O)N(C)c2ccccc2I)cc1
-17% | Cc1cc(C)cc(Nc2nc(-c3ccc(S(=O)(=O)N4CCCC4)cc3)cs2)c1
-6% | COc1ccc(CC(=O)OCC(=O)Nc2ccc(N3CCOCC3)cc2)cc1
13% | Cc1cccc(N2CCN(C(=O)CNC(=O)c3cccc([N+](=O)[O-])c3)CC2)c1C
-3% | O=C(CSc1cccc[n+]1[O-])c1cc2ccccc2o1
5% | COc1ccc(S(=O)(=O)N2CCOCC2)cc1NC(=O)CN(C)Cc1c(F)cccc1Cl

Quoted from above, 15 compounds:
VDR inhibitor | Molecule
0% | Nn1c(SCC(=O)NC2CCCc3ccccc32)nnc1C1CC1 (centres undefined)
-3% | CCC(c1nnc(SCC(=O)Nc2ccc(C(C)=O)cc2)n1C1CCCCC1)N(C)C (centres undefined)
19% | O=C(NCc1ccccc1F)c1cc2ccccn2n1
-6% | CCC1(c2ccccc2)NC(=O)N(CC(=O)NCC2COc3ccccc3O2)C1=O (centres undefined)
-1% | CC(=O)Nc1nc(-c2ccc3c(c2)CCN3S(C)(=O)=O)cs1
-6% | CCCCNc1c(-c2ccc(OC)c(SC3CCCCC3)c2)nc2ccc(Cl)cn12
-15% | O=C(Nc1nnc(SCC(=O)N2CCCC2)s1)C1CC(=O)N(c2ccc(F)cc2)C1 (centres undefined)
0% | O=C(NC1CCCCC1)n1c(=O)oc2ccc(Cl)cc21
-4% | CC(C)c1ccc(C2C(C#N)=C(N)Oc3c2oc(CO)cc3=O)cc1 (centres undefined)
11% | CCOc1ccccc1NC(=O)N1CCC(NC(=O)c2cccc(C)c2)CC1
-1% | O=C1c2ccccc2C(=O)N1c1cccc(O)c1
-22% | CC(C)=CC(=O)Oc1ccc(C(=O)N(C)c2ccccc2I)cc1
-17% | Cc1cc(C)cc(Nc2nc(-c3ccc(S(=O)(=O)N4CCCC4)cc3)cs2)c1
-6% | COc1ccc(CC(=O)OCC(=O)Nc2ccc(N3CCOCC3)cc2)cc1
13% | Cc1cccc(N2CCN(C(=O)CNC(=O)c3cccc([N+](=O)[O-])c3)CC2)c1C

(cont.)
VDR inhibitor | Molecule
-11% | Cc1cccc(OCC(=O)N/N=C\C=C\c2ccc3c(c2)OCO3)c1C
4% | CCCc1ccc(OCC(O)CN2CCCC2)cc1 (centres undefined)
15% | CCOC(=O)Cn1cnc([N+](=O)[O-])n1
3% | COc1cc2oc(=O)ccc2cc1-c1c(OC)ccc2ccc(=O)oc12
-5% | COc1ccccc1-n1c(C)nnc1SCC(=O)Nc1cc(C)cc(C)c1
6% | O=C(Cn1cnc2c(nnn2Cc2ccc(Cl)cc2)c1=O)NCC1CCCO1 (centres undefined)
11% | COc1ccc(C(CC(=O)NCc2ccccc2Cl)N2Cc3ccccc3C2=O)cc1OC (centres undefined)
25% | CCC(=O)C1CCCN(C(=O)CCc2nnc(-c3ccc(C(C)=O)s3)o2)C1 (centres undefined)
12% | Cc1ccc(S(C)(=O)=NC(=O)NC(=O)c2c(Cl)cccc2Cl)cc1 (centres undefined)
20% | CCCCN(CC)C(=O)Cn1c(=O)sc2ccccc21
? | CC[C@H](C)C(=O)O[C@H]1CCC=C2C=C[C@H](C)[C@H](CC[C@@H]3C[C@H](O)CC(=O)O3)[C@H]21
-14% | CCOC(=O)C1=C(N)Oc2ccc3ccccc3c2C1c1cccnc1 (centres undefined)
-4% | COc1cccc(CNc2ncnc3cc(Cl)ccc23)c1
-16% | CCC1=C2CC[C@H]3C(=O)N(CC)C(=O)[C@H]3[C@H]2[C@@]2(Cc3ccccc3)C(=NCCOC)OC(=O)N2C1=O
-4%&0% | COCCNC(=O)CN1C(=O)COc2ccc(S(=O)(=O)N3CCCCCC3)cc21

VDR inhibitor | Molecule
1% | Cc1ccc(N2CC(C(=O)Nc3ccc4c(c3)OCO4)CC2=O)cc1 (centres undefined)
-16% | Cc1oc(/C=N/NC(=O)CC2(C)OCCO2)cc1Br
-5% | NNC(=O)c1sccc1OCc1ccc(Cl)cc1
-19% | COc1ccc(-c2nnc(SCC(=O)Nc3cc(F)ccc3C)o2)cc1
? | CC[C@H](C)/C=C/C1=CC2=C(Cl)C(=O)[C@@]3(C)OC(=O)C(C(=O)[C@H](C)[C@@H](C)O)=C3C2=CO1
6% | COc1ccccc1CNC(=O)Cc1c(C)c2cc3c(C)coc3c(C)c2oc1=O
6% | O=C(N/N=C/C1CC=CCC1)c1ccc(Cl)cc1O (centres undefined)
-9% | CCOc1cc(C2C3=C(CCCC3=O)N(CC(=O)O)C3=C2C(=O)CCC3)ccc1OC
4% | CC(C)=CC(=O)N1CCC(n2nccc2NC(=O)CCc2ccccc2)CC1
2% | O=C(COc1cccc2cccnc12)N/N=C/c1ccc(O)cc1
6% | CCn1c(SCC(=O)NC(C)(C)C)nnc1-c1ccoc1C
32%[activator] | CCCN1CCc2c(sc(NC(=O)c3ccc(S(=O)(=O)N4CCCC4)cc3)c2C(N)=O)C1
-4% | CC(C)c1ccc(C(=O)Nc2ccc(N3CCOCC3)cc2)cc1
? | O=C(NNc1ccc([N+](=O)[O-])cc1)Nc1ccccc1
-3% | Cn1cc(S(=O)(=O)N2CCOCC2)cc1C(=O)NCCc1ccccc1

VDR inhibitor | Molecule
21% | CCc1ccc(CNC(=O)CCc2nnc(Cc3cccc(C(F)(F)F)c3)o2)nc1
-4% | Cc1cc(-n2c(C)cc(C(=O)COc3cc(F)ccc3[N+](=O)[O-])c2C)no1
-8% | COc1ccc(CN(C)C(=O)c2ccc(NC(=O)CC3SC(N4CCCC4)=NC3=O)cc2)c(OC)c1 (centres undefined)
-3% | CC(=O)NC(CC(=O)Nc1ccc(S(=O)(=O)N2CCCCC2)cc1)c1ccccc1 (centres undefined)
-8% | Cc1cc(SCC(=O)NCCN2C(=O)CSC2=O)nc2c(C)cccc12
3% | O=C(O)CCCCCNCc1ccncc1
-4% | COc1ccc(S(=O)(=O)NCC(c2ccc(C)cc2)N2CCN(C)CC2)cc1OC (centres undefined)
-13% | CC(=O)N1CCc2cc(S(=O)(=O)CCC(=O)NCc3ccco3)ccc21
-3% | COc1ccccc1Cc1nc2ccccc2n1S(=O)(=O)c1ccc(Cl)cc1
13% | COc1ccc(C(CNC(=O)c2ccc(S(=O)(=O)Nc3ccc(F)cc3)cc2)N(C)C)cc1 (centres undefined)
-4% | Cc1ccc2nc(NC(=O)c3ccc(Cl)s3)sc2c1
-21% | COc1cc(/C=C2/C(=N)N3OC(C)=CC3=NC2=O)ccc1OCCOc1ccc(C)cc1
-1% | c1ccc(C2=Nc3cccc4cccc(c34)N2)cc1
4.5µM* | O=C1OC2(c3ccccc31)c1cc(I)c(O)c(I)c1Oc1c2cc(I)c(O)c1I
5% | Cc1cccc(OCC(=O)N(Cc2sccc2C)C2CCS(=O)(=O)C2)c1 (centres undefined)

VDR inhibitor | Molecule
7% | CCc1ccc(CSc2nc(-c3ccccc3F)nc3c2Cc2c(CO)cnc(C)c2O3)cc1
-7% | CC(=O)NC(CCS(C)(=O)=O)C(=O)Nc1ccc(F)cc1Cl (centres undefined)
7% | O=c1c2c3c(sc2nc2n1CCCC2)CCCC3
8% | CCc1ccc(Oc2coc3cc(OC(=O)c4cc5ccccc5oc4=O)ccc3c2=O)cc1
3% | CC1=C(C(N)=O)C(c2ccccn2)n2nc(SCc3ccccc3)nc2N1 (centres undefined)
-8% | CC1Cc2ccccc2N1C(=O)CSc1nnc(Cn2nnc3ccccc32)n1C (centres undefined)
-16% | Cc1ccc(C(C)C)c(OCc2nnc(SCC(=O)Nc3ncc(C)s3)n2C)c1
19% | COc1cccc(C(=O)N2CCC(c3nc4ccccc4s3)CC2)c1
-3% | COc1ccc(N2CCN(C(=O)c3cc(=O)c4cc(C)ccc4o3)CC2)cc1
-26% | CCOC(=O)C1CCN(c2c(C(=O)c3ccccc3)cnc3ccc(CC)cc23)CC1
-1% | CCSc1ncc(Cl)c(C(=O)N(Cc2ccc(C(C)(C)C)cc2)C2CCS(=O)(=O)C2)n1 (centres undefined)
-3% | N/C(=N\OC(=O)CN1C(=O)c2ccccc2C1=O)c1ccc(Cl)cc1
20µM* | Cc1cc(C)cc(Oc2nc3c(C)cccn3c(=O)c2/C=C(\C#N)C(=O)NC2CCS(=O)(=O)C2)c1 (centres undefined)
-3% | CCOc1ccccc1C(=O)Nc1nncs1
9% | O=C(CSc1nc2ccccc2s1)Nn1cnnc1

VDR inhibitor | Molecule
7% | CCCCN(CC)CCNC(=O)CN1C(=O)COc2ccc(S(=O)(=O)N3CCOCC3)cc21
-5% | COc1cccc(NC(=O)CN2CCCN(S(=O)(=O)c3ccc(Br)cc3)CC2)c1
-13% | CN(C)C(=O)c1cc(C(=O)c2ccccc2Br)c[nH]1
26% | CN(C)S(=O)(=O)c1cccc(C(=O)NCCNC(=O)c2cccc(S(=O)(=O)N(C)C)c2)c1
-5% | COC(=O)Oc1ccc(/C=N/NS(=O)(=O)c2ccccc2)cc1OC
6% | CCOC(=O)C1(Cc2cccc(Cl)c2)CCCN(C(=O)CCNC(C)=O)C1 (centres undefined)
4% | CCCn1c(=O)[nH]c(=O)c2c1nc(-c1ccc(OC(F)F)cc1)n2CCN1CCOCC1
-21% | COC(=O)c1c(NC(=O)COC(=O)[C@@H](NS(=O)(=O)c2cccc(Cl)c2)C(C)C)sc2c1CCC2
3% | O=C(COc1ccc(Cl)cc1)Nc1cc(NC(=O)COc2ccc(Cl)cc2)cc(C(=O)O)c1
-9% | COc1cc(/C=C2\SC(=Nc3ccc(O)cc3)NC2=O)cc(OC)c1O
-30% | CC1CC(C)CN(S(=O)(=O)c2cc(C(=O)O)c(Cl)s2)C1 (centres undefined)
-8% | O=S(=O)(NCC1COc2ccccc2O1)c1ccc2ccccc2c1 (centres undefined)
0% | COc1ccc(OC)c(Cc2nnc(CCC(=O)N3CCN(C4CCCC4)CC3)o2)c1
-15% | CS(=O)(=O)Nc1ccc(C2=NN(C(=O)c3ccco3)C(c3ccccc3F)C2)cc1 (centres undefined)
2% | Cc1cccc(NC(=O)NCC2CCN(c3ccc(S(=O)(=O)N4CCOCC4)cc3)CC2)c1
-23% | Fc1ccc(-c2ccc(NCCN3CCOCC3)nn2)cc1
-14% | COc1ccc(C(=O)Nc2ccc(-n3nncc3C(C)(C)C)cc2)cc1
0% | COc1ccc(Oc2ncc3nc(-c4ccc(Cl)cc4)c(=O)n(C[C@H]4CCCO4)c3n2)cc1
